Compound activity: PubChem BioAssay, National Center for Advancing Translational Sciences (NCATS)
StopGo reporter: lowers the luciferase signal of an FMDV 2A StopGo reporter. AID 1159524. 410,000 tested, 1.2% active. Potency, µM (top dose mostly 57.9 µM), for the others: at the highest dose signal change, negative = less light. human cells with a luciferase reporter of 2A StopGo recoding; control for the full effect not named in the record; active = well fitted falling curve with a large enough effect; inconclusive = small, poorly fitted or top-dose-only effect; inactive = no such curve, though single readings can be large or run the other way; tested in HEK293T cells; also: % is scaled to controls: 0 for no effect and ±100 for the full control effect; nearly all actives have a fitted effect of over 45% in size; luciferase light after 4 h
RE007 growth inh: less growth of the S. pombe RE007 Vpr strain; S. pombe RE007 Vpr strain, BacTiter-Glo ATP luminescence, 24 h; control for the full effect not named in the record; Potency, µM (doses to about 92.2 µM), without a hit: top-dose activity change, negative = less growth; 360,000 tested, 0.21% active; active = well fitted falling curve with a large enough effect; inconclusive = small, poorly fitted or top-dose-only effect; inactive = no such curve, though single readings can be large or run the other way;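 also: % is scaled to controls: 0 for no effect and ±100 for the full control effect; nearly all actives have a fitted effect of over 50% in size; the assay follows cell death caused by Vpr and the record does not say whether a fall means rescue or toxicity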
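Fission yeast strain RE007, carrying one chromosomally integrated HIV-1 vpr copy, was seeded at OD 0.01 in PMG+AL medium with 23 nL pinned compound. After 24 h at 30 °C and 99% humidity, viability was read by BacTiter-Glo luminescence.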
Lassa entry inh: Lassa virus entry inhibition; AID 540256; Lassa virus pseudotype entry inhibition, cell reporter; control for the full effect not named in the record; 300,000 tested, 1.2% active; Potency, µM (doses to about 37.9 µM), without a hit: at the highest dose activity change, negative = inhibition, most hits filed as inhibitors; active means well fitted inhibition curve with a large enough effect; inconclusive means small, poorly fitted or top-dose-only effect, or effect the other way; inactive means flat fitted curve, though single readings scatter; tested in HEK293 cells; also: % is scaled to controls: 0 for no effect and ±100 for the full control effect; nearly all actives have a fitted effect of over 50% in size; luciferase read-out
NS1 inh: inhibitors of influenza NS1 protein function | S. cerevisiae slowed by influenza A NS1, growth recovery by OD600 | Potency, µM (highest dose often 46.1 µM), for inactives: at the top dose activity, positive = more growth | 270,000 tested, 0.4% active | AID 2326; active means well fitted rising curve with a large enough effect; inconclusive means small, poorly fitted or top-dose-only effect; inactive means no such curve, though single readings can be large or run the other way; also: nearly all actives have a fitted effect of over 50% in size
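Read-out: OD600 growth recovery of NS1-expressing budding yeast. Cells grown overnight at 30C in -URA glucose medium, washed, resuspended and diluted 1:100 in 2% galactose assay medium, pH 6.0. Same strain lacking NS1 served as positive control.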
Cruzain Triton: inhibitors of Trypanosoma cruzi cruzain with detergent. Potency, µM, inactives show max response, negative = inhibition, most hits filed as inhibitors. 200,000 tested, 0.43% active. purified cruzain, Z-FR-AMC fluorescence, 0.01% Triton. P25779;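 also: plate controls were neutral wells for no effect and buffer without enzyme for full effect; nearly all actives have a fitted effect of over 40% in size; top concentration of the series not given in the record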
Target sequence (P25779 123-467 limits assumed): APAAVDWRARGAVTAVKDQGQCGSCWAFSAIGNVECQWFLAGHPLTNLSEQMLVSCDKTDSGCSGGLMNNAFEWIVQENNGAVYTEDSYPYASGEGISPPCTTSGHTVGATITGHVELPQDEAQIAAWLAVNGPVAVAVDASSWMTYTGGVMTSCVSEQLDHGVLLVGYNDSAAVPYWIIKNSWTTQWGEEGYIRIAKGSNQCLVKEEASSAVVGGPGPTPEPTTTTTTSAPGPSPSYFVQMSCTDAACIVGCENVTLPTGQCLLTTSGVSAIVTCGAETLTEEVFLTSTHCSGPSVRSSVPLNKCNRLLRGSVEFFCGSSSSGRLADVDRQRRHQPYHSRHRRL
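Sodium acetate buffer (100 mM, pH 5.5) containing 5 mM DTT and 0.01% Triton X-100 hosted 1.5 nM cruzain and test compound for 15 min at room temperature. Cleavage of 2 uM Z-FR-AMC was then tracked by fluorescence.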
Cruzain noTriton: cruzain (T. cruzi) inhibition without detergent; P25779; purified cruzain, Z-FR-AMC fluorescence, no detergent; Potency, µM, for inactives: max response, negative = inhibition, usual class: inhibitors; 200,000 tested, 2.3% active; AID 1476;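 also: plate controls were enzyme without inhibitor for no effect and buffer without enzyme for full effect; nearly all actives have a fitted effect of over 40% in size; top concentration of the series not given in the record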
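Purified cruzain at 1.5 nM, pre-incubated 15 min with compound at room temperature in 100 mM sodium acetate pH 5.5, 5 mM DTT, 0.00005% Triton X-100. Reaction started with 2 uM Z-FR-AMC; AMC fluorescence increase over 60 s gives rate.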
SARS PLpro yeast: SARS-CoV PLP inhibition in yeast; 330,000 tested, 0.19% active; Potency, µM (doses to about 32.9 µM), for the others: at the highest dose activity, positive = growth rescue; AID 485353; S. cerevisiae expressing SARS-CoV PLpro, growth rescue; control for the full effect not named in the record; active means well fitted rising curve with a large enough effect; inconclusive means small, poorly fitted or top-dose-only effect; inactive means no such curve, though single readings can be large or run the other way; also: 0% is about no effect; nearly all actives have a fitted effect of over 55% in size; growth read by luminescence after 48 h
Marburg entry inh: blocks Marburg virus binding to or entry into cells; Marburg virus pseudotyped entry inhibition, cell reporter; control for the full effect not named in the record; about a third of the inactives were read at about 46 µM; Potency, µM (highest dose often 37.8 µM), for inactives: at the top dose activity change, negative = inhibition, hits mostly inhibitors; 300,000 tested, 1.8% active; AID 540276; active = well fitted inhibition curve with a large enough effect; inconclusive = small, poorly fitted or top-dose-only effect, or effect the other way; inactive = flat fitted curve, though single readings scatter; tested in HEK293 cells; about a fifth of its hits are not listed in these tables; also: % is scaled to controls: 0 for no effect and ±100 for the full control effect; luciferase read-out
Active calls of the source: *; ? = inconclusive; . = no result given; [ ] = another dose, or the depositor's remark. Unless noted, calls follow the shape of the dose curve; as a rule, active = well fitted curve in the direction sought with a large enough effect; inconclusive = small, poorly fitted or top-dose-only effect, or another doubt; inactive = no such curve, though single readings can be large; an effect the other way counts as inactive or inconclusive. Potency is read from the fitted curve at half-maximal effect.

Compound | StopGo reporter | RE007 growth inh | Lassa entry inh | NS1 inh | Cruzain Triton | Cruzain noTriton | SARS PLpro yeast | Marburg entry inh
CCn1c(SCc2ccc(C(=O)Nc3cc(C)cc(C)c3)cc2)nnc1-c1ccncc1 | 18µM* | -6% | -23% | 1% | -2.8% | ? | 0% | ?
O=C(CSc1nccn1Cc1ccc(F)cc1)NCc1ccc(F)cc1 | -12% | . | -12%[46.1 µM] | . | 0.8% | 2% | . | .
CC1CCc2nc3ncn(CC(=O)Nc4cccc(C#N)c4)c(=O)c3cc2C1 (stereo not drawn) | 14% | . | -1%[46.1 µM] | . | -3.9% | 0% | . | .
O=C(CSc1nnc(CNC(=O)c2ccccc2F)o1)Nc1ccc2c(c1)OCCO2 | -4% | -12% | 20% | 0% | -3.5% | -9% | 8% | 28%
Cc1cc(Nc2ccc(F)c(Cl)c2)n2nc(C)nc2n1 | 0% | -17% | -13% | -49% | 0.2% | -1% | 0% | -18%
CCCc1cc(N2CCCC(C(=O)NCC)C2)n2ncnc2n1 (stereo not drawn) | 7% | 10% | 12%[14.3 µM] | 4% | 3.2% | -8% | 1% | -6%
CSc1nc(-c2ccco2)cc(C(F)(F)F)c1C#N | -21% | -16% | -4% | 6% | -14% | -14% | 5% | ?
CCOc1ccc(CN(C)C(=O)c2cccnc2SC)cc1OC | -29% | 10% | -8%[46.1 µM] | . | . | . | 0% | -7%[46.1 µM]
CN(C)S(=O)(=O)c1ccc(S(=O)(=O)N(Cc2ccco2)Cc2ccccc2Cl)cc1 | -30% | -18% | ? | 0% | 1.9% | -3% | 4% | ?
Cc1cccn2c(=O)c3cc(C(=O)NCCN4CCOCC4)c(=N)n(Cc4ccc(F)cc4)c3nc12 | -3% | 12% | 5.6µM* | 6% | . | . | 3% | ?
O=C(Nc1ccccc1C(F)(F)F)N1CCCC1c1cccnc1 (stereo not drawn) | -5% | 37% | -28% | 1% | . | . | -2% | 9%[46.1 µM]
CC1=Nc2ccc(C)cc2/C1=C/c1c(N)n2c(S(=O)(=O)C(C)C)nsc2nc1=O | -5% | 18% | 2% | . | . | . | -1% | 21%

Full records, quoted from the list. Screens in order: StopGo reporter	RE007 growth inh	Lassa entry inh	NS1 inh	Cruzain Triton	Cruzain noTriton	SARS PLpro yeast	Marburg entry inh
Cc1cccn2c(=O)c3cc(C(=O)NCCN4CCOCC4)c(=N)n(Cc4ccc(F)cc4)c3nc12 is entered as -3%	12%	5.6µM*	6%	.	.	3%	?
CCCc1cc(N2CCCC(C(=O)NCC)C2)n2ncnc2n1 (stereo not drawn) is entered as 7%	10%	12%[14.3 µM]	4%	3.2%	-8%	1%	-6%
Cc1cc(Nc2ccc(F)c(Cl)c2)n2nc(C)nc2n1 is entered as 0%	-17%	-13%	-49%	0.2%	-1%	0%	-18%

The results go on.
Compound | StopGo reporter | RE007 growth inh | Lassa entry inh | NS1 inh | Cruzain Triton | Cruzain noTriton | SARS PLpro yeast | Marburg entry inh
Cc1cc(C(=O)COC(=O)CNC(=O)c2ccco2)c(C)n1Cc1ccco1 | 1% | . | -1% | -1% | -6.7% | 3% | 16% | 7%
O=C(N/N=C/c1ccco1)C1CC1 | -16% | 5% | 19% | -8% | -5.3% | -4% | -1% | 14%
CC(C)CCN1C(=O)c2ccccc2CC1(C)C(=O)NC1CCCCC1 (stereo not drawn) | 12% | . | . | . | -2.2% | 17% | . | -20%[46.1 µM]
CC(=O)c1c(O)c2ccccc2n(C)c1=O | -1% | -27% | 3% | -59% | . | . | -2% | ?
O=C(c1cccc(F)c1)N1CCN(c2cccc(Cl)c2)CC1 | ? | -13% | ? | -34% | -5.2% | ? | -11% | ?
O=C(O)CC1S/C(=N/N=C/c2ccc(-c3ccccc3[N+](=O)[O-])o2)NC1=O (stereo not drawn) | 5% | 1% | -2% | -2% | -11% | -25% | -4% | -1%
CC(=O)c1ccc(S(=O)(=O)Nc2cc3c(cc2C(C)=O)OCO3)cc1 | -21% | -6% | -6%[46.1 µM] | . | . | . | 0% | 16%[46.1 µM]
CCOc1cc(C)cc2oc(=O)c3c(c12)CCCC3 | -10% | -11% | -5%[46.1 µM] | -3% | . | . | -2% | 1%[46.1 µM]
COc1cccc(C(O)c2nc3ccccc3n2C(C)C)c1OC (stereo not drawn) | -27% | -14% | 19%[46.1 µM] | -1% | . | . | 3% | 2%[46.1 µM]
Cc1[nH]nc(SCC(=O)Nc2ccc(C#N)cc2)c1[N+](=O)[O-] | -2% | -11% | -7% | 7% | 0.3% | -20% | 8% | -9%
Cc1ccc(S(=O)(=O)N(C)Cc2cc3cc(C)ccc3[nH]c2=O)cc1 | 11% | -6% | . | 14% | . | . | 7% | .
Cc1ccc(-c2nc(-c3ccncc3)no2)cc1Cl | 50%[activator] | -2% | -24% | 0% | . | . | 1% | 22%
COC(=O)C1=C(C)N(Cc2ccccc2)C(=O)N[C@H]1c1cccs1 | -15% | 3% | . | -3% | . | . | 1% | .
CCOc1ccc(NC(=O)c2ccccc2C(=O)c2ccccc2)cc1OCC | -9% | -9% | . | 17% | . | . | -6% | .
COc1cccc(C(CNC(=O)C(c2ccccc2)c2ccccc2)N(C)C)c1 (stereo not drawn) | -16% | -9% | 6% | 4% | . | . | 0% | ?
Cc1cc(=O)oc2cc(NC(=O)c3cccc(Br)c3)ccc12 | 32%[activator] | -12% | ? | -3% | . | . | ? | 0%
CCOc1ccc(CN2CCN(Cc3c[nH]c4ccccc34)CC2)cc1 | ? | -25% | -18% | 15% | . | . | -1% | ?
COc1ccc2nc(N3CCCCC3)c(/C=C3\SC(=S)NC3=O)cc2c1 | -21% | 5% | 10%[46.1 µM] | -4% | . | . | 0% | ?
Cn1nc(C(=O)NCc2ccccc2)c2ccccc2c1=O | -4% | 6% | 8% | -13% | 3.6% | -10% | 1% | -29%
CCOc1ccc(Nc2nc(Cc3nnc(SCC(=O)NCc4ccco4)n3CC)cs2)cc1 | . | 12% | -6% | 16% | -8.0% | ? | 6% | -23%
O=C(Nc1c2n(c(=S)n(-c3ccccc3)c1=O)CCCCC2)c1ccccc1 | -14% | 1% | -8% | -3% | . | . | 1% | 1%
CCOc1ccc(CNC(=O)c2ccc(NC(=O)N3CCSc4ncccc43)cc2)cc1OC | -22% | . | 1%[46.1 µM] | . | -10% | -1% | . | .
CN1CCC(Oc2ccccc2Sc2ccc(C(F)(F)F)cc2)CC1 | -25% | -13% | 12µM* | -15% | -2.0% | 14% | -8% | ?
Cc1ccc(S(=O)(=O)/N=C(/NC(=S)Nc2cccc(C)c2)c2ccccc2)cc1 | 64%[activator] | 0% | 20% | 10% | 3.6% | -14% | 29% | 16%
COc1ccc(-c2cc(-c3ccc(Br)cc3)nc3ncnn23)cc1OC | -18% | 8% | ? | 2% | -13% | -15% | -6% | ?
CCOc1ccc(N2C(=O)CN(CC(=O)OC)C2=S)cc1 | 14% | -3% | -1%[46.1 µM] | -3% | . | . | -2% | 16%[46.1 µM]
COc1cc(C(=O)N2CCC(c3nc4ccccc4o3)CC2)cc(OC)c1OC | -21% | . | -9%[46.1 µM] | . | 0.4% | 10% | . | -23%[46.1 µM]
O=C1c2ccccc2CCC1C(O)c1ccccn1 (stereo not drawn) | 40%[activator] | -22% | 14% | 1% | 2.8% | 2% | -3% | 12%
O=C(CCCCC(=O)NCCCc1ccccc1)NCCCc1ccccc1 | -13% | 5% | . | 0% | . | . | -3% | .
NC(=O)N/N=C/C=C/c1ccc(F)cc1 | 13% | -15% | -18% | 2% | . | . | -1% | -17%[14.2 µM]
CSc1ccc(CN2CCC(Oc3cccc(C(=O)N4CCCC4)c3)CC2)cc1 | -15% | 9% | -12% | -10% | . | . | -7% | -5%
COc1ccc(NC(=O)Cn2c(=O)n(-c3ccc(CC(=O)NCC4CCCO4)cc3)c(=O)c3ccccc32)c(OC)c1 (stereo not drawn) | -17% | . | ? | . | -2.0% | ? | . | -4%[46.1 µM]
COCCn1c(SCC(=O)N2CC(=O)Nc3ccccc32)nc2ccccc21 | -19% | -13% | 2% | 2% | 0.6% | 6% | -6% | ?
CN1CCN(C(=O)/C=C/c2cccc(Cl)c2)CC1 | -5% | -16% | . | 10% | . | . | 6% | .
Nc1ccc2c(c1)OC1(CCCCC1)O2 | 20% | -4% | 11% | . | . | . | 1% | 17%[46.1 µM]
CCCOc1ccc(C(CC(=O)O)NC(=O)c2sc3ccccc3c2Cl)cc1 (stereo not drawn) | -5% | -11% | 2% | . | . | . | 3% | -10%[46.1 µM]
CC(C)CC1(C)NC(=O)N(CC(=O)Nc2ccc3c(c2)CCC3)C1=O (stereo not drawn) | 17% | 42% | 7% | 6% | . | . | 0% | 7%[46.1 µM]
FC(F)(F)c1ccc(Sc2n[nH]c(C(F)(F)F)n2)nc1 | ? | -3% | 13% | -59% | . | . | -4% | 0%[46.1 µM]
CC(NC(=O)OC(C)(C)C)C(=O)Oc1ccc2ccc(=O)oc2c1 (stereo not drawn) | -22% | -6% | -8% | -2% | -26% | 28% | -5% | 1%[46.1 µM]
C/C(=N/NC(=O)c1sc(NS(=O)(=O)c2ccccc2)nc1C)c1ccccc1 | 29% | -9% | . | 14% | -5.5% | 1% | 28% | .
O=C1c2[nH]nc(-c3ccccc3O)c2C(c2ccc(Cl)cc2)N1CCc1ccccc1 (stereo not drawn) | ? | . | ? | . | -9.1% | ? | . | ?
Cc1cccc(NC(=O)C2(c3ccccc3)CC2(Cl)Cl)c1 (stereo not drawn) | -20% | 9% | -1% | -52% | 1.3% | -2% | -13% | -5%
Cc1cccn2cc(CSc3nnc(Nc4ccc(C(C)C)cc4)s3)nc12 | 5% | -2% | . | 15% | -9.0% | 1% | 0% | .
COC(=O)c1sc(=S)n(-c2cc(F)ccc2F)c1N | -14% | -7% | -6% | -117% | -6.1% | -5% | 5% | -3%
Cc1cccc(NC(=O)C2(C)Cc3ccccc3C(=O)O2)c1 (stereo not drawn) | 10% | . | ? | . | -2.4% | -4% | . | ?
